SARS PLpro yeast = qHTS of Yeast-based Assay for SARS-CoV PLP; S. cerevisiae expressing SARS-CoV PLpro, growth rescue; control for the full effect not named in the record; Potency, µM (highest dose often 32.9 µM), without a hit: top-dose activity, positive = growth rescue; 330,000 compounds, 0.19% hits; AID 485353, 2010; active means well fitted rising curve with a large enough effect; inconclusive means small, poorly fitted or top-dose-only effect; inactive means no such curve, though single readings can be large or run the other way; further: 0% is about no effect; nearly all actives have a fitted effect of over 55% in size; growth read by luminescence after 48 h
NS1 inh = qHTS Assay for Inhibitors of Influenza NS1 Protein Function. S. cerevisiae slowed by influenza A NS1, growth recovery by OD600. Potency, µM (top dose mostly 46.1 µM), inactives show at the top dose activity, positive = more growth. 270,000 compounds, 0.4% hits. AID 2326, 2010; active means well fitted rising curve with a large enough effect; inconclusive means small, poorly fitted or top-dose-only effect; inactive means no such curve, though single readings can be large or run the other way; further: nearly all actives have a fitted effect of over 50% in size
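In this qHTS, NS1 from influenza A is expressed in budding yeast, where it slows growth. Cells are switched from glucose to 2% galactose medium (pH 6.0, -URA), treated with compound, and growth recovery is read at OD600.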
Cruzain Triton = qHTS Assay for Promiscuous and Specific Inhibitors of Cruzain (with detergent); Cruzipain (Trypanosoma cruzi), P25779; purified cruzain, Z-FR-AMC fluorescence, 0.01% Triton; Potency, µM, inactives show max response, negative = inhibition, actives largely listed as inhibitors; 200,000 compounds, 0.43% hits; AID 1478, 2009;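 further: plate controls were neutral wells for no effect and buffer without enzyme for full effect; nearly all actives have a fitted effect of over 40% in size; top concentration of the series not given in the record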
Target sequence (P25779 123-467 limits assumed): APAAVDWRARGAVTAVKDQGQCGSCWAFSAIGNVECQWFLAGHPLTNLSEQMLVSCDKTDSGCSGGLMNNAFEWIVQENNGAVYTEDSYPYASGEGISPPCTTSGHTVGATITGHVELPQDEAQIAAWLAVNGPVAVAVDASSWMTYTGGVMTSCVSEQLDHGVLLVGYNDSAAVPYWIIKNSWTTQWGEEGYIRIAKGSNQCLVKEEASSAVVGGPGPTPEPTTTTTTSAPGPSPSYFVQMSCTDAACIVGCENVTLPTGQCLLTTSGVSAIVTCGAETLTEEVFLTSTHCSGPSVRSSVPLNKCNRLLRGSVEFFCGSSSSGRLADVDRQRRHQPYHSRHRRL
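Compounds were screened in titration against cruzain (1.5 nM) with 0.01% Triton X-100 to counter colloidal aggregation. Activity was the AMC fluorescence increase over 60 s after adding 2 uM Z-FR-AMC at pH 5.5.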
RE007 growth inh = qHTS Assay for Inhibitors of the HIV-1 protein Vpr; S. pombe RE007 Vpr strain, BacTiter-Glo ATP luminescence, 24 h; control for the full effect not named in the record; Potency, µM (titrated, usually from 92.2 µM), inactives show at the highest dose activity change, negative = less growth; 360,000 compounds, 0.21% hits; AID 651644, 2012; active = well fitted falling curve with a large enough effect; inconclusive = small, poorly fitted or top-dose-only effect; inactive = no such curve, though single readings can be large or run the other way;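 further: on the % scale 0 is the no-effect control and ±100 the full control effect; nearly all actives have a fitted effect of over 50% in size; the assay follows cell death caused by Vpr and the record does not say whether a fall means rescue or toxicity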
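Fission yeast RE007 carrying one integrated HIV-1 vpr copy, seeded at OD 0.01 in PMG+AL medium with 23 nL pinned compound. Grown 24 h at 30 degrees; viability read by BacTiter-Glo luminescence after 5 min.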
LASV entry inh = qHTS for Inhibitors of binding or entry into cells for Lassa Virus | Lassa virus pseudotype entry inhibition, cell reporter; control for the full effect not named in the record | Potency, µM (titrated, usually from 37.9 µM), for the others: at the highest dose activity change, negative = inhibition, actives largely listed as inhibitors | 300,000 compounds, 1.2% hits | AID 540256, 2011; active means well fitted inhibition curve with a large enough effect; inconclusive means small, poorly fitted or top-dose-only effect, or effect the other way; inactive means flat fitted curve, though single readings scatter; tested in HEK293 cells; further: on the % scale 0 is the no-effect control and ±100 the full control effect; nearly all actives have a fitted effect of over 50% in size; luciferase read-out
Cruzain inh noDet = qHTS Assay for Promiscuous and Specific Inhibitors of Cruzain (without detergent); Cruzipain (Trypanosoma cruzi), P25779; purified cruzain, Z-FR-AMC fluorescence, no detergent; Potency, µM, inactives show max response, negative = inhibition, hits mostly inhibitors; 200,000 compounds, 2.3% hits; AID 1476, 2009;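 further: plate controls were enzyme without inhibitor for no effect and buffer without enzyme for full effect; nearly all actives have a fitted effect of over 40% in size; top concentration of the series not given in the record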
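Detergent-free condition (0.00005% Triton X-100) in acetate buffer pH 5.5 with DTT. 1.5 nM enzyme and compound were pre-mixed 15 min, then 2 uM Z-FR-AMC substrate added; reaction progress from fluorescence change between first and third reads (60 s).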
MARV entry inh = qHTS for inhibitors of binding or entry into cells for Marburg Virus | Marburg virus pseudotyped entry inhibition, cell reporter; control for the full effect not named in the record; about a third of the inactives were read at about 46 µM | 300,000 compounds, 1.8% hits | Potency, µM (top dose mostly 37.8 µM), for the others: at the top dose activity change, negative = inhibition, hits mostly inhibitors | AID 540276, 2011; active = well fitted inhibition curve with a large enough effect; inconclusive = small, poorly fitted or top-dose-only effect, or effect the other way; inactive = flat fitted curve, though single readings scatter; tested in HEK293 cells; about a fifth of its hits are not listed in these tables; further: on the % scale 0 is the no-effect control and ±100 the full control effect; luciferase read-out
StopGo reporter = High Throughput Screening for Foot and Mouth Disease Virus Antivirals; human cells with a luciferase reporter of 2A StopGo recoding; control for the full effect not named in the record; Potency, µM (doses to about 57.9 µM), for inactives: top-dose signal change, negative = less light; 410,000 compounds, 1.2% hits; active = well fitted falling curve with a large enough effect; inconclusive = small, poorly fitted or top-dose-only effect; inactive = no such curve, though single readings can be large or run the other way; tested in HEK293T cells; further: on the % scale 0 is the no-effect control and ±100 the full control effect; nearly all actives have a fitted effect of over 45% in size; luciferase light after 4 h
* hit, by the source's call; ? = inconclusive; . = no result given; & = joins results of further samples; [ ] = another dose, or the depositor's remark. Unless noted, the call rests on the fitted dose curve; in most records, active means well fitted curve in the direction sought with a large enough effect; inconclusive means small, poorly fitted or top-dose-only effect, or another doubt; inactive means no such curve, though single readings can be large; an effect the other way counts as inactive or inconclusive. Potency means the concentration at half of the fitted maximal effect.

SMILES	SARS PLpro yeast	NS1 inh	Cruzain Triton	RE007 growth inh	LASV entry inh	Cruzain inh noDet	MARV entry inh	StopGo reporter
CCc1ccc(C(=O)c2cn(CC(=O)NCc3ccc(C)cc3)c3nc(C)ccc3c2=O)cc1	.	.	5.0%	.	-15%[46.1 µM]	-4%	.	-10%
COc1ccc(C2NC(=O)N(C)C3=C2C(=O)N(c2ccc(C(=O)O)cc2)C3)cc1 (stereo unspecified)	.	.	-4.1%	.	6%[46.1 µM]	-9%	0%[46.1 µM]	6%
CCCc1n(CC)c2ccccc2[n+]1CC(O)COC1CCCCC1 (stereo unspecified)	-1%	.	.	-4%	2%	.	-12%[46.1 µM]	-27%
COc1ccccc1NC(=O)c1sc2nc(Cc3ccccc3)cc(C(F)(F)F)c2c1N	9%	-4%	-0.6%	-17%	-20%	-8%	-8%	7%
Cc1ccc(C)c(NC(=O)c2c(Cl)nc3ccccn23)c1	-1%	-2%	.	27%	0%[46.1 µM]	.	3%[46.1 µM]	-8%
O=C(N/N=C/c1c[nH]c2ccccc12)c1ccccc1O	0%	1%	.	0%	?	.	?	25%
Cc1cccc(-c2n[nH]c(S(C)(=O)=O)c2C#N)c1	0%	3%	.	-2%	.	.	.	1%
CC(C)c1ccc(OCC(=O)NNC(=S)NC(=O)C2CC2)cc1	.	-121%	.	?	?	.	?	0%
CC(C)(C)NC(=O)COC(=O)Cc1ccc(Cl)cc1	2%	-11%	2.0%	7%	19%	21%	3%	9%
O=C(Nc1ccccc1)c1cccc(S(=O)(=O)Oc2ccc([N+](=O)[O-])cc2)c1	-22%	9%	-6.4%	-2%	11%	-3%	-4%	?
C=CCN(C(=O)C1CC(=O)N(C2CCCC2)C1)c1nc(-c2ccc(S(C)(=O)=O)cc2)cs1 (stereo unspecified)	1%	.	.	-3%	?	.	?	0%
CNC(=O)c1ccsc1NC(=O)c1ccccc1	-6%	-48%	.	4%	.	.	.	26%
COc1cc(NC(=O)c2ccc(COCC(F)(F)F)cc2)cc(OC)c1OC	0%	6%	-3.1%	15%	?	25%	-24%[46.1 µM]	-16%
C/C=C(\C)C(=O)N[C@@H](c1ccccc1)[C@@H](O)C(=O)O[C@H]1C[C@@]2(O)[C@@H](OC(=O)c3ccccc3)C3[C@](C)(C(=O)[C@H](OC(C)=O)C(=C1C)C2(C)C)[C@H](O)C[C@H]1OC[C@@]31OC(C)=O (stereo partly specified)	-7%	3%	.	-4%	.	.	.	?
CCC(Sc1ccc(Cl)cc1)C(=O)Nc1nnc(-c2cccc([N+](=O)[O-])c2)s1 (stereo unspecified)	6%	6%	0.4%	-2%	-13%	?	-4%	?
CCOc1ccc(C(C)=O)cc1CN1C(=O)NC(C)(C2CC2)C1=O (stereo unspecified)	2%	.	.	-4%	-1%[46.1 µM]	.	-19%[46.1 µM]	-14%
CCC(O)(CCN1CCCCC1)c1ccccc1 (stereo unspecified)	2%	-6%	1.3%	13%	2%	-13%	6%	-2%
CN1CCN(CCCNC(=O)c2ccc(Cn3c(=S)[nH]c4ccc(Br)cc4c3=O)cc2)CC1	0%	.	.	-29%	10%	.	?	44%[activator]
COC(=O)c1ccc(C(c2c(N)n(Cc3ccccc3)c(=O)n(C)c2=O)N2CCOCC2)cc1 (stereo unspecified)	4%	-4%	3.5%	2%	?	?	-2%&-2%	-9%
CC(C)(C(=O)c1ccccc1)/[N+]([O-])=C/c1ccccc1	.	.	.	-11%	0%	.	2%	-13%
CC(=O)c1ccc(S(=O)(=O)Nc2cccc(-c3ccc(N4CCCC4)nn3)c2)cc1	.	.	-4.7%	.	-23%[46.1 µM]	-1%	.	34%[activator]
COc1ccc(C(=O)CN2C(=O)NC3(CCc4ccccc43)C2=O)cc1 (stereo unspecified)	1%	5%	.	4%	26%[46.1 µM]	.	6%[46.1 µM]	8%
Cc1nc(N2CCOCC2)c2c(C)c(C(=O)Nc3ccc(F)cc3F)sc2n1	-1%	.	.	-12%	?	.	-23%[46.1 µM]	-24%
O=C(c1ccccc1-c1nc(-c2ccccc2)no1)N1CCOCC1	4%	-4%	3.8%	-5%	-9%	0%	17%	19%
Cc1cccc(-n2c3c(cc(-c4nc(-c5ccc(Cl)cc5)cs4)c2=O)C(=O)CC(C)(C)C3)c1	.	.	-0.5%	.	10%[46.1 µM]	-4%	-7%[46.1 µM]	-1%
(listing goes on)
SMILES	SARS PLpro yeast	NS1 inh	Cruzain Triton	RE007 growth inh	LASV entry inh	Cruzain inh noDet	MARV entry inh	StopGo reporter
CCOC(=O)Nc1cc(OC)c(OC)cc1Cc1nccc2cc(OC)c(OC)cc12	0%	?	-1.0%	-17%	0%	-11%	-8%	.
Cc1ccc(S(=O)(=O)N(C)C)cc1NC(=O)CCNC(=O)c1ccccc1Cl	19%	7%	-4.2%	3%	-2%	-6%	1%	-24%
Cn1cccc1Cc1nnc(SCC(=O)Nc2ccccc2F)n1CCc1ccccc1	-11%	7.1µM*	-1.9%	2%	-24%	23%	-22%&-22%	8%
CCc1ccc(N(CC(=O)NC2CCCCC2)C(=O)CNC(=O)c2ccco2)cc1	-1%	3%	.	27%	-11%	.	9%[46.1 µM]	-3%
CCS(=O)(=O)Nc1ccc(C2=NN(S(=O)(=O)CC)C(c3cccs3)C2)cc1 (stereo unspecified)	3%	18%	.	7%	.	.	.	6%
Nc1sc(-c2ccccc2)cc1C(=O)O	-2%	22%	2.6%	.	.	-26%	0%	.
CCC1(CC)C(=O)N(Cc2ccccc2)C(=O)N(Cc2ccccc2)C1=O	-16%	-2%	-4.5%	4%	?	-1%	?	-4%
Clc1ccc(-c2nnc(-c3ccccc3)c(-c3c[nH]c4ccccc34)n2)cc1	7%	-9%	.	-8%	3%	.	11%[46.1 µM]	8%
CCCn1c(=O)c2ccccc2n2c(SCC(=O)c3cc(C)n(CCOC)c3C)nnc12	7%	1%	1.9%	-11%	4%	5%	-7%&3%	4%
O=S(=O)(N/N=C/c1ccc(OC2CSC2)cc1)c1ccccc1	1%	19%	4.4%	12%	-1%	-26%	0%	109%[activator]
COc1cc(C(=O)OCC(=O)c2c(N)n(C)c(=O)n(C)c2=O)ccc1OCCC(C)C	1%	.	.	7%	8%	.	-9%[46.1 µM]	5%
CCCCC(=O)NNC(=S)NC(=O)c1ccc(C)cc1	-3%	-72%	.	?	-10%[46.1 µM]	.	5%[46.1 µM]	-7%
O=C1c2ccccc2C(Nc2ccc(Cl)cn2)N1Cc1ccccc1 (stereo unspecified)	-28%	-132%	-7.1%	3%	.	-5%	.	-17%
CCCCNC(=O)CSc1nc2ccc(C)cc2[nH]1	-3%	.	.	16%	5%	.	16%[46.1 µM]	-14%
CCOC(=O)N1N=C(c2ccccc2)CC1(O)C(C)(F)F (stereo unspecified)	0%	2%	.	3%	-26%[46.1 µM]	.	-3%[46.1 µM]	-14%
COC(=O)c1ccc(N2CCCCC2)c(NS(=O)(=O)c2ccc(C)cc2)c1	-16%	9%	-1.7%	-16%	-3%	-3%	?	.
O=C(CSc1nc2ccccc2s1)c1cc2ccccc2o1	.	0%	-1.3%	-10%	7%	-17%	5%	47%[activator]
Cc1ccc(NC(=O)CN2C(=O)CN=C(c3ccccc3)c3cc(Cl)ccc32)cc1	-33%	-66%	-5.4%	-9%	.	19%	.	0%
COC(=O)C(C)Oc1ccc(Cc2ncc(C(F)(F)F)cc2Cl)cc1 (stereo unspecified)	-5%	4%	.	-8%	.	.	.	-8%
CCOc1ccc(C2NC(=O)NC(C)=C2C(=O)OCc2ccccc2)cc1 (stereo unspecified)	-3%	13%	.	2%	-44%	.	-2%	?
CCN(C(=O)CCN1C(=O)c2ccccc2C1=O)C1CCCCC1	1%	-8%	5.5%	2%	-16%	-2%	4%	.
Cc1nc2c(nnn2Cc2ccccc2Cl)c(=O)[nH]1	6%	-6%	.	7%	.	.	.	8%
Cc1ccc(NC(=O)Cn2c(=O)n(Cc3ccccc3)c(=O)c3c2c2cc(C)ccc2n3C)cc1	.	.	1.1%	.	19%[46.1 µM]	-7%	.	-12%
CCC(=O)N1CCc2cc(S(=O)(=O)NCCC(=O)NCc3ccccc3Cl)ccc21	-4%	-3%	-6.3%	10%	5%[46.1 µM]	-1%	2%&2%[46.1 µM]	-4%&-8%
CC(/C=N/NC(=O)c1ccc(Cn2cc([N+](=O)[O-])cn2)o1)=C\c1ccccc1	-3%	14%	.	-5%	6%[46.1 µM]	.	6%[46.1 µM]	7%
Next section:
SMILES	SARS PLpro yeast	NS1 inh	Cruzain Triton	RE007 growth inh	LASV entry inh	Cruzain inh noDet	MARV entry inh	StopGo reporter
CCOc1ccc(C(=O)N(CN2CCCC2=O)c2ccc(C)cc2)cc1	4%	4%	-1.7%	-2%	-13%	10%	-3%	-3%
O=C(CN1C2=NCCCN2c2ccccc21)c1ccc(Br)s1	-8%	4%	-3.1%	4%	5%	-4%	?	-26%
Cn1c(=O)[nH]c(=O)c2c1nc(CN1CCN(c3ccccc3F)CC1)n2CCc1ccccc1	0%	5%	.	17%	.	.	.	?
COCCn1c(NC(=S)NC(=O)C23CC4CC(CC(C4)C2)C3)cc(=O)[nH]c1=O	0%	2%	.	-6%	.	.	.	-10%
COc1ccc(-c2nc(C#N)c(NCc3ccccc3Cl)o2)cc1	.	-8%	-7.3%	3%	19%	-16%	?	9%
O=C(CSc1nnc(-c2ccco2)o1)NC1CCCCC1	0%	-4%	-1.2%	10%	-7%	-7%	-14%	20%
CN(C)CCN(Cc1cccs1)S(=O)(=O)c1csc(C(N)=O)c1	-4%	13%	.	-8%	.	.	.	1%
COCCN1C(=O)c2ccccc2C(C(=O)N2CCN(c3ccccc3)CC2)C1c1ccc(F)cc1 (stereo unspecified)	2%	-6%	1.6%	21%	?	?	-7%	-6%
O=C(Nc1nnc2n1CCS2)c1ccccc1	.	.	0.3%	.	7%[46.1 µM]	-3%	.	23%
CCN(CC)c1ccc(/C=N/N2CCN(Cc3ccccc3Cl)CC2)c(O)c1	0%	-2%	.	-17%	.	.	1%	27%

Screening data: PubChem, National Center for Advancing Translational Sciences (NCATS)

Rows were taken by chance, and some 4.7% of all compounds hit somewhere here.
